# T cruzi repl: T. cruzi replication inhibition; T. cruzi beta-gal in NIH3T3, luminescence, 90 h; AID 1885; inhibition, % (concentration not given with the values); hit rate 1.4% among 300,000;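 active = mean inhibition across valid replicates above about 55%, limit read from the data; inconclusive = mean below that limit but half or more replicates reach it; inactive = mean below it, under half of replicates reach it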;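 also: signal also drops with host cell toxicity which is not excluded here; 0% = plate median of DMSO wells and 100% = zero luminescence signal; higher percent means less beta-gal luminescence so fewer parasites; stock transfer was 50 nL into about 50 µL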
# Bfl-1 A1 inh: inhibitors of the anti-apoptotic protein A1, read as caspase activation; MEF A1-2A-BIM cells, Caspase-Glo 3/7 luminescence, 3 h; percent of clofoctol response, vehicle zero; caspase activation, % (no concentration beside the values); hit rate 0.066% among 330,000; AID 2462;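 active = over half of replicate activation scores above 10%, or exactly half above 10 with the replicate mean above 10; inconclusive = replicate mean below 10 yet half the replicates above 10; inactive = over half of replicates below 10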;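 also: wells of about 30 µL received 50 nL stock; many hits fall short of the cut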
# ALR inh: human ALR oxidase inhibition via reduced H2O2; purified ALR, DTT oxidation, H2O2 HRP-luminol luminescence; inhibition, % (no concentration beside the values); hit rate 3.8% among 290,000; AID 485317;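 active = mean and each replicate at 75% or more; inconclusive = only one of the two met; inactive = neither met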;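 also: stock transfer was 7.5 nL into about 7.5 µL; 0% = neutral wells and 100% = wells with inactivated enzyme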
# Target sequence (P55789 whole entry, looked up): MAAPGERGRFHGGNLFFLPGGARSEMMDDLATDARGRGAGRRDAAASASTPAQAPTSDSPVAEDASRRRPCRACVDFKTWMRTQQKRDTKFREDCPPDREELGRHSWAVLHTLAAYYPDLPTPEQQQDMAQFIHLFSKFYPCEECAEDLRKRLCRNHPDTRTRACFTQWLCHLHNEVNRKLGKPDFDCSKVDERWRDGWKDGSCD
# Beta2AR agonist: human beta-2 adrenergic receptor agonism by FAP; P07550; Am2.2-beta2AR cells, FAP receptor internalization, flow cytometry; reference of the scale not given here; response, % (no concentration beside the values); hit rate 0.43% among 340,000;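 active = response above a set limit, near 3 SD of response in nonfluorescent compounds, cut at about 42% in these data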;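 also: stock transfer was 100 nL into about 11 µL; a reference agonist was the positive control; negative values mostly stem from fluorescent compounds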
# Target sequence (P07550 whole entry, looked up): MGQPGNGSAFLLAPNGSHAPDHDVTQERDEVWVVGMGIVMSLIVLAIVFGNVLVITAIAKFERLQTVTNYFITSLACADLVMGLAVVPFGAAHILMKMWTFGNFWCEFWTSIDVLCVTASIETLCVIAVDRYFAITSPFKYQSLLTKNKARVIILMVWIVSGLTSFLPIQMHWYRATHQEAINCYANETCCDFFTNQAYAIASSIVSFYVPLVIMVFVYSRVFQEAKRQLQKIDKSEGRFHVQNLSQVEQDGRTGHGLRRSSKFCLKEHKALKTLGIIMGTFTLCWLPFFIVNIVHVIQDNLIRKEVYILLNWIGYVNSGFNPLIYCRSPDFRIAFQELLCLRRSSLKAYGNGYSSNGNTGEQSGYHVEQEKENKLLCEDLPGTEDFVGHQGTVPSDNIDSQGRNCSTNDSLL
# LANA-H2B inh: blocks KSHV LANA binding to histone H2A/H2B. cell-free LANA-H2A/H2B peptide, fluorescence polarization. inhibition, % (no concentration beside the values). hit rate 0.6% among 320,000. AID 2629; in the data active = inhibition mostly above about 10%, no sharp cut-off; inactive = mostly below about 6.7%;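 also: stock transfer was 7.5 nL into about 10 µL; 0% = median of vehicle wells and 100% = median of positive control wells; one replicate is shown; the record names a cut of 25% in any replicate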
# Ecoli rRNA inh: selective bacterial rRNA inhibition in E. coli | E. coli WT GFP vs humanized-ribosome RFP mutants, fluorescence, 24 h; active compounds read low; DMSO median 0, no signal -100 | GFP signal change (wild-type ribosome), % (concentration not given with the values) | hit rate 1.6% among 350,000 | AID 720706;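 active = significant combined selectivity score with lowered wild-type GFP, culture density cut under 30%, mutant RFP and density less affected; inactive = any of these conditions unmet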; also: one replicate is shown; some compounds called inactive have numbers as strong as hits
# Beta cell apopt: beta cell apoptosis inhibition; hit rate 0.8% among 300,000; protection from apoptosis, % (concentration not given with the values); INS-1E cytokine-induced death, ATP luminescence, 48 h; percent of positive-control rescue, neutral wells zero; AID 435005;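 active = all replicates at 75% or more, or half of them and the mean; inconclusive = half reach 75% but not the mean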;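 also: 0% = cytokine-treated negative control wells and 100% = positive control rescue; higher means more ATP so stronger rescue from cytokine killing; wells of about 40 µL received 100 nL stock; the first replicate is given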
# Calb FLC: C. albicans growth modulation with fluconazole; C. albicans CaCi-2 (fluconazole-resistant clinical isolate) + fluconazole, Alamar Blue growth, 48 h; growth inhibition, % (test concentration not listed); hit rate 0.57% among 300,000; AID 1979;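 active = most replicates above 75%; inconclusive = exactly half above 75%; inactive = most below 75%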;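 also: all wells also contain fluconazole at 8 µg/ml as a sub-toxic cotreatment; 0% = median of DMSO wells and 100% = median of geldanamycin control wells; wells of about 8 µL received 7.5 nL stock; the first replicate is given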
# Ecoli rRNA inh OD600: recorded beside Ecoli rRNA inh, whose call it bears; OD600 change, %; measured here: OD600 growth;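 optical density of the mix in the first replicate; 0 = DMSO median and -100 = no signal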
# Ecoli rRNA inh RFP: also measured in Ecoli rRNA inh; calls as there; RFP signal change, %; measured here: RFP humanized mutant strains;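 first replicate; 0 = DMSO median and -100 = no signal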
# Active calls of the source: *; ? = inconclusive; . = not tested or not shown; & = joins results of further samples; ! = not active in a repeat. These rows are one share of the data; the hit share may differ from the screen's.
# Start of the listing, in advance (5 entries):
SMILES,T cruzi repl,Bfl-1 A1 inh,ALR inh,Beta2AR agonist,LANA-H2B inh,Ecoli rRNA inh,Ecoli rRNA inh OD600,Ecoli rRNA inh RFP,Beta cell apopt,Calb FLC
COc1ccc(-c2csc(Nc3ccc(S(=O)(=O)Nc4cc(C)on4)cc3)n2)cc1,-9.8,0.5,98.1*,13.6,3.8,-45.9,-42.9,-12.9,-11.0,3.9
COCC(C)NC(=O)c1ccc(CN2CCc3ccccc3C2)cc1 (centres undefined),-6.5,1.1,-9.6,6.9,30.7*,20.9,16.2,0.7,-3.1,-11.7
Cc1cc(C)n2nc(CNS(=O)(=O)c3ccc(F)c(C)c3)nc2n1,-17.5,0.3,2.9,-5.5,3.2,0.1,2.8,-0.5,4.6,-2.9
CC(CN1CCN(C)CC1)OC(=O)c1ccc(F)cc1 (centres undefined),36.8,0.5,-8.2,2.2,3.5,16.8,12.3,1.7,-5.6,-3.9
Cc1oc2cc3oc(=O)c4c(c3cc2c1C)CCC4,-3.4,-0.9,36.3,-3.8,-1.9,.,.,.,-1.8,20.1

# The whole of this part, repeating the preview:
SMILES,T cruzi repl,Bfl-1 A1 inh,ALR inh,Beta2AR agonist,LANA-H2B inh,Ecoli rRNA inh,Ecoli rRNA inh OD600,Ecoli rRNA inh RFP,Beta cell apopt,Calb FLC
COc1ccc(-c2csc(Nc3ccc(S(=O)(=O)Nc4cc(C)on4)cc3)n2)cc1,-9.8,0.5,98.1*,13.6,3.8,-45.9,-42.9,-12.9,-11.0,3.9
COCC(C)NC(=O)c1ccc(CN2CCc3ccccc3C2)cc1 (centres undefined),-6.5,1.1,-9.6,6.9,30.7*,20.9,16.2,0.7,-3.1,-11.7
Cc1cc(C)n2nc(CNS(=O)(=O)c3ccc(F)c(C)c3)nc2n1,-17.5,0.3,2.9,-5.5,3.2,0.1,2.8,-0.5,4.6,-2.9
CC(CN1CCN(C)CC1)OC(=O)c1ccc(F)cc1 (centres undefined),36.8,0.5,-8.2,2.2,3.5,16.8,12.3,1.7,-5.6,-3.9
Cc1oc2cc3oc(=O)c4c(c3cc2c1C)CCC4,-3.4,-0.9,36.3,-3.8,-1.9,.,.,.,-1.8,20.1
C=CCn1c(SCC#N)nc2ccccc2c1=O,-0.6,0.2,0.3,-6.7,3.8,.,.,.,-1.2,32.4
O=C(Nc1ccc2c(c1)C(=O)OC2)c1ccc(Cl)cc1Cl,-7.9,-0.4,-2.4,9.9,1.0,4.8,14.4,6.9,-7.5,6.7
CC(=O)c1sc(-c2ccccc2)cc1NS(=O)(=O)c1ccc(C)cc1,-20.2,-0.3,-16.4,12.9,-2.0,11.1,3.6,2.4,-0.5,-0.1
CCN(CC)C(=O)c1ccc(NS(=O)(=O)c2ccc(/C=C/C(=O)O)cc2)cc1,-10.0,-0.4,1.8,7.5,0.7,8.3,2.4,-0.5,0.7,-3.7
CCOc1ccc(NC(=S)N2CCC(c3ccc(C)cc3)C2)cc1 (centres undefined),7.9,1.0,8.0,-5.7,1.8,8.9,9.7,2.4,10.7,-18.9
CC(C)C(=O)Nc1ccc2c(c1)oc1ccccc12,-9.7,-0.3,-0.9,6.7,0.3,.,.,.,6.5,0.9
COc1ccc(CN(C)CC(=O)Nc2ccc(N3CCOCC3)cc2)cc1OC,-8.3,-0.2,?,6.8,3.4,0.5,-3.3,0.7,1.9,-11.9
COc1ccc(S(=O)(=O)N2CCOCC2)cc1NC(=O)c1ccc2c(c1)OCCO2,6.2,0.2,-5.1,-1.2,-3.6,-1.9,-7.8,2.1,-2.9,-20.9
COc1ccccc1CSc1nc2c(c(=O)n(C)c(=O)n2C)n1C,0.3,.,.,-7.2,.,12.1,4.1,2.6,.,-4.9
COc1ccc(NS(=O)(=O)c2cc(NC(=O)c3cccs3)ccc2N2CCCC2)cc1,4.7,-2.1,-5.9,-21.9,0.5,5.0,-3.8,-0.5,12.8,-8.0
CC(=O)Nc1ccc(S(=O)(=O)N2CCN(CCCOc3ccccc3Cl)CC2)cc1,-23.2,0.9,-21.7,1.1,4.7,.,.,.,6.8,5.3
CCC1Oc2ccccc2N(CC(=O)NCc2ccco2)C1=O (centres undefined),4.1,0.2,3.5,-0.4,6.4,21.8,15.1,0.2,-2.2,-3.3
COc1ccc(/C=N/NC(N)=S)cc1OC(=O)c1ccccc1,-7.5,-0.1,21.1,-4.5,1.1,.,.,.,.,-4.1
Nc1nc(SCC(=O)NCCN2CCOCC2)nc2sc3c(c12)CCC3,-14.6,-0.1,-2.5,-7.1,-5.1,4.0,8.6,-0.4,-0.8,-4.7
COC(=O)c1ccc(CSCC(=O)Nc2ccccc2)cc1,0.5,-0.3,92.0*,-3.2,4.7,-17.1,-4.9,-0.4,-4.1,-7.5
O=C(COC(=O)/C=C/c1ccccc1)Nc1ccc2c(c1)OCCO2,.,1.8,-17.1,-8.3,4.2,12.3,12.6,2.5,-2.0,.
COCC(C)n1c(SCc2ccc(C(=O)OC)cc2)nc2ccccc2c1=O (centres undefined),6.3,-0.4,-7.2,2.4,-1.4,0.8,-18.0,-3.4,11.7,9.3
O=C(CCc1nnc(-c2ccccc2)o1)NCc1c(F)cccc1F,13.3,-0.8,56.1,0.1,0.9,0.2,6.8,-0.1,-4.3,-1.3
COc1cccc(/C=N/n2c(C3CCCCC3)n[nH]c2=S)c1OC,5.1,0.3,-4.6,4.0,2.9,9.2,12.4,0.9,-2.6,1.7
CCOc1cccc(-c2nn(-c3ccccc3)cc2/C=C(/C#N)C(=O)NCCCn2ccnc2)c1,27.7,0.3,-0.2,1.5,3.5,.,.,.,12.2,1.6
CC(NC(=O)c1ccc(Cn2cc([N+](=O)[O-])cn2)cc1)c1ccccc1 (centres undefined),-4.0,?,-2.4,-1.8,-2.6,.,.,.,-0.9,13.1
CCOC(=O)N1CCN(C(=O)COc2ccc(Br)cc2)CC1,7.2,0.5,-11.0,-0.8,-6.9,.,.,.,-3.3,29.9
COc1ccc(-c2oc(NC(C)=O)c(C#N)c2-c2ccc(OC)cc2)cc1,19.5,0.0,9.6,-2.9,1.3,.,.,.,-8.2,12.0
O=C(C1=C[C@@H](c2ccccc2)C[C@@H](OCc2ccc(CO)cc2)O1)N1CCOCC1,2.4,0.1,7.1,-0.6,-5.5,8.5,4.8,0.3,-8.0,-8.3
CONc1nc(NC(C)(C)C)nc(OCC#N)n1,-23.5,-0.1,7.2,-7.4,-2.7,10.1,12.3,5.3,-11.4,-21.3
CCCCC12CN3CC(C)(CN(C1)C31C(=O)N(C)c3ccc(C)cc31)C2=O (centres undefined),0.7,0.2,-5.4,9.5,-8.2,.,.,.,-6.8,6.1
COc1cc(NC(=O)c2ccc3c(c2)C(=O)N(CCC(C)C)C3=O)c(C(=O)O)cc1OC,8.0,-0.4,53.5,-7.7,-4.4,8.7,9.5,-0.7,-2.9,-3.0
COc1ncc(C2=CC(=O)CC(C)(C)C2)cn1,.,0.4,-2.0,-1.4,4.5,10.7,15.3,1.0,0.6,.
COc1cc(NC(=O)CSc2nc3[nH]c(=O)cc(O)c3s2)cc(OC)c1OC,.,0.0,98.9*,-3.1,.,1.9,3.1,6.8,0.6,.
CCCCOc1ccc(C(=O)N/C(=C/C=C/c2ccccc2)C(=O)NCCCO)cc1,-3.5,-0.4,-5.4,-7.2,3.5,2.0,1.2,-0.2,5.8,.
NCCCC[C@@H]1NC(=O)[C@H](CCC(=O)O)NC(=O)c2cc([N+](=O)[O-])cc(I)c2OCC[C@@H](C(N)=O)NC1=O,.,0.6,-2.4,-6.4,-6.5,.,.,.,-3.1,.
COc1ccc(NC(=O)CCCNC(=O)Cn2cnc3sc4c(c3c2=O)CCCC4)c(OC)c1,14.6,-0.5,-8.0,-6.2,1.5,4.7,1.1,-0.1,-4.3,0.0
CC(C)(O)[C@@H]1[C@@H]2C[C@@]3(CC[C@]4(C)C(CCC5[C@@]6(C)CC[C@H](O)C(C)(C)C6CC[C@]54C)[C@@H]13)C(=O)O2 (some centres undefined),-10.9,0.5,-19.1,.,-1.0,.,.,.,-0.8,-4.7
O=C(CCl)Nc1ccc(S(=O)(=O)NC2=NCCCCC2)cc1,.,0.1,1.1,5.0,-1.6,0.8,7.4,0.7,-19.6,.
CCN1CCN(Cc2cc(=O)oc3ccc(Cl)cc23)CC1,52.7,1.9,.,-1.8,-1.5,.,.,.,1.2,?
CCN(CC(=O)Nc1c(F)cccc1F)C(=O)c1ccc(N2CCCCC2)c([N+](=O)[O-])c1,7.2,1.3,1.0,-5.1,2.6,-6.6,-15.9,-1.9,12.1,-7.2
Cn1nnnc1SCC(=O)Nc1cc(C(F)(F)F)ccc1N1CCOCC1,3.4,0.3,.,-2.4,3.4,2.8,1.3,0.3,-3.5,-1.7
COc1ccc(C(=O)NC(C(=O)OCC(=O)Nc2sccc2C(N)=O)C(C)C)cc1 (centres undefined),.,0.4,2.1,-2.6,-4.2,.,.,.,-3.1,.
CCC(=O)NC1=C(NC(C)c2ccccc2)C(=O)c2ccccc2C1=O (centres undefined),-3.6,0.7,-28.9,-7.2,1.2,.,.,.,.,2.3
CS(=O)(=O)N(CC(=O)N1CCCC1)Cc1ccc(F)cc1,-17.1,-0.3,-0.4,1.4,2.1,17.1,5.3,1.3,-3.2,0.9
Cc1ccc(-c2cn(-c3ccccc3)c3[n+]2CCCS3)cc1,43.7&41.8,0.5&0.5,-4.3&-1.0,3.1&-2.0,0.9&1.7,.,.,.,110.9*,99.2*!
CCOC(=O)C1CCN(c2ncnc3c2cnn3-c2ccc(OC)cc2)CC1,.,0.1,-11.9,9.8,-1.9,-1.8,1.5,-4.6,-3.3,.
CN1CCN(C(=O)CCN2C(=O)/C(=C\c3ccc(Cl)cc3)SC2=S)CC1,-7.7,-1.0,-1.3,-5.5,2.3,.,.,.,.,-4.5
Cc1cc(/C=C(\C#N)C(N)=O)c(C)n1-c1ccc(N2CCOCC2)c([N+](=O)[O-])c1,-25.7,?,-1.9,5.8,-0.8,.,.,.,-5.1,22.4
Cc1ccc(NC(=O)CCC(=O)c2cccs2)c(O)c1,-11.3,0.1,4.8,-10.2,-0.3,1.2,2.7,3.9,2.6,-3.6
# Following part
SMILES,T cruzi repl,Bfl-1 A1 inh,ALR inh,Beta2AR agonist,LANA-H2B inh,Ecoli rRNA inh,Ecoli rRNA inh OD600,Ecoli rRNA inh RFP,Beta cell apopt,Calb FLC
O=C(O)/C=C/C(=O)Nc1ccc2c(c1)NC(=O)CO2,-6.4,-0.5,24.1,-1.1,1.3,18.5,23.7,1.4,-1.6,-19.6
Cc1cccc(NC(=O)N2CCc3ccccc3C2)c1C,-10.5,0.1,-2.1,0.5,-5.7,5.7,11.5,0.4,-9.2,16.2
O=C(NC1CCCCC1)N1CCN(c2ccc(Cl)cc2)CC1,-7.5,0.2,99.0*,-7.4,3.9,-7.4,-3.5,-1.3,-0.1,4.4
Cc1nn(C(C)C)c(C)c1[C@@H]1C[C@H]2CN(Cc3cccc(Cl)c3)C(=O)[C@]23CCCN13,4.0,0.1,2.7,2.0,-5.8,5.3,-0.6,-0.6,-4.4,-3.9
